# High-throughput results deposited in PubChem by several laboratories.
# FGF22 binding – binders of recombinant human FGF22 by thermal shift | SYPRO orange fluorescence; percent of sucrose octasulfate shift, DMSO zero | calls only at 9.99 µM | hit rate 1.5% among 340,000 | AID 651658;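 active = melting point raised past a set limit in the mean and every replicate; inconclusive = no clear call; three in four hits are not shown here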
# Target sequence (Q9HCT0 whole entry, looked up): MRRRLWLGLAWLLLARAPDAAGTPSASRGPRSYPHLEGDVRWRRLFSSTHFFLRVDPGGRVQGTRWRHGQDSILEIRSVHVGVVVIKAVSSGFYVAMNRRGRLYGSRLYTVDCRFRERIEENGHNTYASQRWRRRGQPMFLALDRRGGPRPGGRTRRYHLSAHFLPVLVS
# ALR inh – human ALR oxidase inhibition via reduced H2O2. hit rate 3.8% among 290,000. purified ALR, DTT oxidation, H2O2 HRP-luminol luminescence. AID 485317. inhibition, % (test concentration not listed). P55789;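 active = mean and each replicate at 75% or more; inconclusive = only one of the two met; inactive = neither met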;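 also: stock transfer was 7.5 nL into about 7.5 µL; 0% = neutral wells and 100% = wells with inactivated enzyme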
# Target sequence (P55789 whole entry, looked up): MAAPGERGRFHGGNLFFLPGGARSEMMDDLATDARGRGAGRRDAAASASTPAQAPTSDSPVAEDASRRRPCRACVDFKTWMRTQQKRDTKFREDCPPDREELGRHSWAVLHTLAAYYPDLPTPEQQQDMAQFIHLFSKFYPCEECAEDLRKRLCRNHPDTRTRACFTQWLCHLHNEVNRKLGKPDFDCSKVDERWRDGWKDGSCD
# Ecoli growth – E. coli growth inhibition; Escherichia coli growth, OD600, 23 h; hits give low values; OD600 absorbance (concentration not given with the values); hit rate 0.21% among 330,000; AID 1053175;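 active = OD600 absorbance below the run mean of sample wells minus 3.6 SD, in any replicate, cut at about 0.56 in these data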;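 also: stock transfer was 300 nL into about 60 µL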
# rRNA inh HTS – selective bacterial rRNA inhibition in E. coli; AID 720706; GFP signal change (wild-type ribosome), % (test concentration not listed); E. coli WT GFP vs humanized-ribosome RFP mutants, fluorescence, 24 h; hits give low values; DMSO median 0, no signal -100; hit rate 1.6% among 350,000;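 active = significant combined selectivity score with lowered wild-type GFP, culture density cut under 30%, mutant RFP and density less affected; inactive = any of these conditions unmet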; also: one replicate is shown; some compounds called inactive have numbers as strong as hits
# MLL AF4-AF9 inh – MLL-AF4/AF9 protein interaction inhibition; AID 651704; hit rate 0.47% among 350,000; inhibition, % at 10 µM; AlphaScreen, biotin-AF4 peptide binding to FLAG-AF9;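 active = every replicate reaching a set inhibition limit, whatever the replicate mean, cut at about 25% in these data; inconclusive = mean inhibition reaches that limit but some replicates miss it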;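 also: 0% = plate neutral control median and 100% = total signal loss; the record names both 10 and 1 µM as test concentration; the first replicate is given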
# HNF4A DNA FP – change in binding of human HNF4 alpha to DNA; HNF4a-FITC DNA binding, fluorescence polarization, 1 h; activity change, % at 10 µM; P41235; hit rate 0.3% among 360,000; AID 1224865; in the data active = activity change above about 30%, passing the limit was not always enough;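 also: controls were the assay level and a saturating level of protein; the project sought stronger binding though the title names inhibitors; some compounds called inactive have numbers as strong as hits; positive values seem to mean higher polarization but the record does not say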
# Target sequence (P41235 whole entry, looked up): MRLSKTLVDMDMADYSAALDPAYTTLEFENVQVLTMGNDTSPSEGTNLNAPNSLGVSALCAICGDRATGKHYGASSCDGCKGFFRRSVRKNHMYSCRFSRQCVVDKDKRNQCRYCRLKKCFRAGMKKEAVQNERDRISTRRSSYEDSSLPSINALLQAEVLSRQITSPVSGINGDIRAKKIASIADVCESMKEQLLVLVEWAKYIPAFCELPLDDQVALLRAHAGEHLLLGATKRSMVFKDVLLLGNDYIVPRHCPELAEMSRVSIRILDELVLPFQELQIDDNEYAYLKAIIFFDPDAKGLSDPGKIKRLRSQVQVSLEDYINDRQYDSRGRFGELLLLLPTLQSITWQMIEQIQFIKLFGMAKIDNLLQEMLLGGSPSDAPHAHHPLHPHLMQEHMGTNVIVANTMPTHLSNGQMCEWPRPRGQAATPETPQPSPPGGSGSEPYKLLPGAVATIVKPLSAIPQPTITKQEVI
# Vif TR-FRET – HIV-1 Vif–A3G interaction blockers – biochemical, TR-FRET, GST-Vif 1-94, biotin-A3G peptide, dose response retest, primary screen (AID 1117319) | one-dose inhibition, %; IC50 in µM for titrated hits | hit rate 0.57% among 260,000 | TR-FRET GST-Vif / biotin-A3G peptide binding; higher % means a stronger effect; test concentration not given here; strong numbers were not always called active;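 active = above the screen mean plus three standard deviations and confirmed in dose response; inconclusive = results disagree or hit not tested in dose response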;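 also: Vif residues 1-94 fused to GST binding biotinylated APOBEC3G peptide 110-148; 0% = full assay without inhibitor and 100% = GST in place of GST-Vif; retest series ran down from 100 µM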
# rRNA inh HTS OD600 – also measured in rRNA inh HTS; calls as there; OD600 change, %; measured here: OD600 growth;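 optical density of the mix in the first replicate; 0 = DMSO median and -100 = no signal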
# rRNA inh HTS RFP – also measured in rRNA inh HTS; calls as there; RFP signal change, %; measured here: RFP humanized mutant strains;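 first replicate; 0 = DMSO median and -100 = no signal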
# Active calls of the source: *; i = inactive; ? = inconclusive; . = no result given. Only part of the results is shown (hit frequency here may not be typical).
molecule	rRNA inh HTS	ALR inh	HNF4A DNA FP	rRNA inh HTS OD600	Vif TR-FRET	MLL AF4-AF9 inh	Ecoli growth	rRNA inh HTS RFP	FGF22 binding
COc1cc(OC)cc(C(=O)N[C@H](C(=O)OCC(=O)Nc2ccc(C(N)=O)cc2)C(C)C)c1	11.5	0.6	2.2	-1.5	.	-2.1	.	-0.4	i
Cc1cc(C)n2c(SCc3ccccc3Cl)nnc2n1	.	5.8	1.9	.	-4.8%	.	0.691	.	.
O=C1CN(S(=O)(=O)c2cc(Cl)ccc2Cl)CCN1	14.6	-18.8	-3.6	6.4	-8.1%	-1.2	0.674	4.3	i
CCC(=O)Nc1nnc(S(=O)(=O)N(C)c2cc(C)cc(C)c2)s1	3.2	-6.2	-3.4	11.3	5.0%	-0.8	0.699	-1.5	i
CCCCS(=O)(=O)Nc1ccc(N2CCOCC2)c(S(=O)(=O)N2CCOCC2)c1	-3.3	-5.1	-5.5	-9.9	.	-1.6	0.733	0.2	i
COCCNC(=O)C[C@H]1C[C@H]2c3cc(NC(=O)NC4CCCCC4)ccc3O[C@H]2[C@@H](CO)O1	6.9	.	.	-1.5	.	-1.5	.	2.2	i
CCc1nccn1CCC(=O)NC1CCCc2c1cnn2-c1ccc(F)cc1F (stereo not drawn)	2.8	-15.0	2.5	13.3	3.7%	1.4	0.666	-0.4	i
CC(NC(=O)Nn1cnnc1)(C(F)(F)F)C(F)(F)F	14.0	-0.4	-5.8	12.0	-4.6%	-4.0	0.714	0.4	i
O=c1[nH]c2cc3ccccc3cc2nc1-c1nnnn1Cc1ccccc1	7.2	.	-2.0	10.5	.	-1.1	.	3.8	i
CC(=O)c1c(C)[nH]c(C(=O)Nc2cc(C)cc(C)c2)c1C	.	-16.0	0.3	.	-2.3%	.	0.69	.	.
CCC(c1nnnn1C1CCCC1)N(Cc1cccs1)Cc1cc2cc(C)ccc2[nH]c1=O (stereo not drawn)	.	.	2.2	.	-5.1%	.	0.806	.	.
Clc1ccc(C2[C@H]3CN(Cc4cccnc4)[C@H](c4ccccc4)C34CC2(c2cccnc2)C4)cn1 (stereo partly drawn)	0.3	-45.3	0.9	6.4	.	11.3	.	12.7	i

# Additional records follow:
molecule	rRNA inh HTS	ALR inh	HNF4A DNA FP	rRNA inh HTS OD600	Vif TR-FRET	MLL AF4-AF9 inh	Ecoli growth	rRNA inh HTS RFP	FGF22 binding
COc1ccc(CNC(=O)CN(C(=O)c2cc3sccc3n2C)C2CCCC2)cc1	4.1	1.7	-1.1	0.7	17.1%	-2.3	0.709	-6.4	i
C[C@@H]1CN([C@@H](C)CO)C(=O)c2cc(NC(=O)CCC(F)(F)F)ccc2O[C@@H](C)CCCCO[C@@H]1CN(C)S(=O)(=O)c1ccc(Cl)cc1	0.1	.	.	2.4	.	3.1	.	0.9	i
NC(CSC1(c2ccc(Cl)cc2)c2ccccc2-c2ccccc21)C(=O)O (stereo not drawn)	-21.2	.	-3.7	-63.0	2.7%	0.5	.	2.9	i
COC(=O)c1cn(NC(=O)c2cnccn2)c(=O)c2ccccc12	.	.	-1.2	.	31.8%	.	0.703	.	.
COc1ccc(C2=CC(=O)OC3(CCCCC3)O2)cc1	.	-5.7	-1.0	.	27.3%	.	0.652	.	.
C[C@@H]1CN([C@H](C)CO)S(=O)(=O)c2ccc(C#Cc3ccccn3)cc2O[C@H]1CN(C)Cc1cccc(F)c1	-9.5	.	.	-4.2	.	-0.8	.	24.6	i
O=C(c1cc(-c2ccccc2)on1)N1CCCC1	.	-2.3	-1.4	.	2.0%	.	0.68	.	.
CCOC(=O)c1ccc(NC(=O)C2COc3ccccc3O2)cc1 (stereo not drawn)	-29.8	.	0.3	-44.0	.	-2.8	0.606	5.9	i
O=C(CO/N=C/c1ccc(OC(F)F)cc1)N1CCc2ccccc21	.	-31.1	1.6	.	-0.7%	.	.	.	.
Cc1ccc(C(=O)N/C(=C\c2cccs2)C(=O)NCCCN2CCOCC2)cc1	3.2	-3.4	-1.6	4.4	.	0.0	0.654	-1.1	i
COc1ccccc1/C=C1\SC(N2CCC(C)CC2)=NC1=O	-26.4	-5.0	1.0	-52.5	.	7.5	0.673	-6.7	i
Cc1ccc(S(=O)(=O)Nc2cccc3ncccc23)cc1	-13.6	0.2	0.0	-14.9	5.9%	-0.1	0.679	-8.4	i

# (further entries)
molecule	rRNA inh HTS	ALR inh	HNF4A DNA FP	rRNA inh HTS OD600	Vif TR-FRET	MLL AF4-AF9 inh	Ecoli growth	rRNA inh HTS RFP	FGF22 binding
Cc1ccc(CNC(N)=S)cc1	.	.	0.1	.	3.5%	.	0.656	.	.
C[C@@H]1CCCCO[C@@H](CN(C)CC2CCCCC2)[C@H](C)CN([C@H](C)CO)C(=O)c2cc(NS(=O)(=O)c3ccccc3)ccc2O1	2.3	.	.	7.1	.	8.8	.	2.8	i
COCCCNC(=O)Cc1ccc(S(=O)(=O)N2CCOCC2)s1	6.8	-2.1	1.0	19.2	24.3%	-7.5	0.68	-0.9	i
CC1CN(CCCCSc2ccccc2)CC(C)O1 (stereo not drawn)	0.1	-1.3	0.5	2.4	4.3%	1.0	0.67	-2.3	i
Cc1cc(SCC(=O)OCC(=O)N2CCN(C(=O)c3ccco3)CC2)c(C)cc1Br	.	0.3	-3.2	.	-1.5%	.	0.629	.	.
CC1CCN(C(=O)c2ccc3c(c2)OCCO3)CC1	.	-6.0	-0.8	.	2.2%	.	.	.	.
CCCN(C)C[C@H]1OCCCC[C@@H](C)Oc2ccc(NS(=O)(=O)c3cccs3)cc2C(=O)N([C@@H](C)CO)C[C@@H]1C	-0.5	.	.	-2.5	.	11.5	.	2.8	i
Cc1ccc(CNC(=O)CCCn2nc(C)c3c(C)n(-c4ccccc4)nc3c2=O)cc1	-2.8	0.9	4.1	2.4	.	-0.8	0.656	-2.5	i
CC(=O)NC12CC3CC(C1)CC(C(=O)Nc1nccs1)(C3)C2	.	-1.8	0.4	.	1.1%	.	0.796	.	.
O=C(Nc1ccc(C(F)(F)F)cc1)N[C@H]1CC[C@@H](CCn2cc(C3(O)CCCC3)nn2)O[C@@H]1CO	-3.4	.	.	-9.7	.	0.8	.	1.6	i
N#CCCN(CCN1CCCC1)S(=O)(=O)c1ccc(-c2ccc([N+](=O)[O-])cc2)cc1	33.8	-3.0	-1.5	15.8	-5.7%	0.6	0.695	-0.9	i
O=C1C2C3C=CC(CC3)C2C(=O)N1c1ccc2c(c1)OCO2 (stereo not drawn)	.	0.2	-1.4	.	-1.0%	.	0.719	.	.

# Next part
molecule	rRNA inh HTS	ALR inh	HNF4A DNA FP	rRNA inh HTS OD600	Vif TR-FRET	MLL AF4-AF9 inh	Ecoli growth	rRNA inh HTS RFP	FGF22 binding
CCN1CCCC1CNCc1cccc(OC)c1OCc1ccccc1 (stereo not drawn)	.	-14.5	-0.5	.	-0.1%	.	0.651	.	.
N#Cc1cccc(-c2ccc3c(c2)[C@@H]2[C@@H](CCN2S(=O)(=O)c2ccccc2F)[C@@H](CO)N3)c1	-12.1	.	.	5.3	.	-2.2	.	11.8	i
COC(=O)C[C@@H]1C=C[C@@H](NC(=O)NC2CCCC2)[C@@H](CO)O1	6.8	.	0.7	8.8	.	-0.8	.	-1.1	.
Cc1ccc(S(=O)(=O)N[C@@H]2C=C[C@@H](CC(=O)NCCN3CCCCC3)O[C@H]2CO)cc1	4.8	.	.	1.1	.	1.7	.	-3.8	i
Cc1nc2ncnn2c(C)c1CCC(=O)NCCC1=CCCCC1	.	-10.4	5.2	.	1.1%	.	.	.	.
COc1ccc(N2CCN(C(=O)Oc3ccc([N+](=O)[O-])cc3)CC2)cc1	17.4	.	-0.3	9.8	.	-0.9	.	1.7	i
COc1cc(C(=O)Nc2ccc(S(=O)(=O)Nc3onc(C)c3C)cc2)cc(OC)c1OC	.	.	1.5	.	-1.6%	.	0.757	.	.
CC=Cc1ccc2n(c1=O)C[C@@H]1[C@@H](CO)[C@H](C(=O)Nc3ccccc3)[C@H]2N1C(=O)CC (mixture of isomers)	0.6	.	.	-5.6	.	-1.9	.	-0.5	i
CCCNC(=O)C[C@H]1CC[C@@H]2[C@H](COc3ccc(NC(=O)C4CCOCC4)cc3C(=O)N2C)O1	2.6	.	.	8.0	.	-1.7	.	-1.9	i
CCOc1ccccc1N1CCN(Cc2ccc(OC)c(OC)c2OC)CC1	.	12.5	-0.4	.	19.7%	.	0.673	.	.
C[C@H]1CN([C@@H](C)CO)C(=O)Cc2cc(NC(=O)Nc3cccc4ccccc34)ccc2O[C@@H]1CN(C)C(=O)Nc1ccc2c(c1)OCO2	-1.9	.	.	-12.0	.	0.2	.	-1.7	i
O=C(N1CCN(c2cccc(Cl)c2)CC1)C1(c2cccs2)CCOCC1	.	-2.6	1.2	.	.	.	0.684	.	.

# Quoted from the listing:
# rRNA inh HTS OD600 result of N#Cc1cccc(-c2ccc3c(c2)[C@@H]2[C@@H](CCN2S(=O)(=O)c2ccccc2F)[C@@H](CO)N3)c1 is entered as 5.3
# ALR inh result of COc1ccc(CNC(=O)CN(C(=O)c2cc3sccc3n2C)C2CCCC2)cc1 is entered as 1.7
# HNF4A DNA FP result of COCCCNC(=O)Cc1ccc(S(=O)(=O)N2CCOCC2)s1 is entered as 1.0
# Ecoli growth result of CCc1nccn1CCC(=O)NC1CCCc2c1cnn2-c1ccc(F)cc1F (stereo not drawn) is entered as 0.666
# HNF4A DNA FP result of CC1CCN(C(=O)c2ccc3c(c2)OCCO3)CC1 is entered as -0.8
# Vif TR-FRET result of Cc1ccc(CNC(N)=S)cc1 is entered as 3.5%
# rRNA inh HTS RFP result of C[C@@H]1CCCCO[C@@H](CN(C)CC2CCCCC2)[C@H](C)CN([C@H](C)CO)C(=O)c2cc(NS(=O)(=O)c3ccccc3)ccc2O1 is entered as 2.8

# Returning to the listing, starting 2 compounds before the break.
molecule	rRNA inh HTS	ALR inh	HNF4A DNA FP	rRNA inh HTS OD600	Vif TR-FRET	MLL AF4-AF9 inh	Ecoli growth	rRNA inh HTS RFP	FGF22 binding
C[C@H]1CN([C@@H](C)CO)C(=O)Cc2cc(NC(=O)Nc3cccc4ccccc34)ccc2O[C@@H]1CN(C)C(=O)Nc1ccc2c(c1)OCO2	-1.9	.	.	-12.0	.	0.2	.	-1.7	i
O=C(N1CCN(c2cccc(Cl)c2)CC1)C1(c2cccs2)CCOCC1	.	-2.6	1.2	.	.	.	0.684	.	.
CCCC(=O)Nc1c(O)c2ccccc2[nH]c1=O	.	-30.3	-0.5	.	?	.	0.656	.	.
O=C1CCC2CCCCC2(O)O1 (stereo not drawn)	.	2.0	-2.3	.	3.0%	.	0.668	.	.
CC(=O)c1ccc(-c2nc3ccccc3n2C)o1	.	0.0	-0.9	.	-1.5%	.	0.743	.	.
Cc1ccc(OCC(=O)Nc2nnc(S(=O)(=O)N3CCCCC3)s2)cc1	-2.8	-2.6	-25.5	3.1	.	-8.4	0.709	1.9	i
